D2 ag: activates the human D2 dopamine receptor; P14416; DiscoveRx PathHunter D2 beta-arrestin, luminescence, 90 min; 100% = 57 uM dopamine signal; activation, % (no concentration beside the values); 0.084% of 360,000 active; AID 624465; in the data active = activation above about 40%; inconclusive = about 15% to 40%; inactive = below about 15%; also: compound concentration not given in the record; the text of the record calls up to 30% inactive
Target sequence (P14416 whole entry, looked up): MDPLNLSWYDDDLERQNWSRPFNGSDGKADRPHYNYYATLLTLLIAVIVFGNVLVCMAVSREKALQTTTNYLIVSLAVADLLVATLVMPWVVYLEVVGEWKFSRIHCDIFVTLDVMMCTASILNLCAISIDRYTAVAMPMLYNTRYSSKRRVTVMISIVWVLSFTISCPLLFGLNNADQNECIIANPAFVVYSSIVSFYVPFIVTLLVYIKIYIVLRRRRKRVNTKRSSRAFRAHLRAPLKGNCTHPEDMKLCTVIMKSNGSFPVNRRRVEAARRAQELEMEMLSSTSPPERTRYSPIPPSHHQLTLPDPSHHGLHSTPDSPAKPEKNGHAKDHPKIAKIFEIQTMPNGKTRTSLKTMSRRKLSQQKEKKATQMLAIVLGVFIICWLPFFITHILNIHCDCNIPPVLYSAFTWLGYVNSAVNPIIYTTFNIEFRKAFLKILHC
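Agonist mode: compounds alone added to overnight-plated D2 PathHunter cells for 90 min at 37 C, with 57 uM final dopamine (EC100) defining full response. Beta-arrestin recruitment detected by chemiluminescent reagent, read after 1 h at ambient temperature.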
gsp antag: gsp mutant antagonism. gsp-mutant cells, cAMP HTRF, 30 min; control for the full effect not named in the record. Potency, µM (doses to about 76.9 µM), for inactives: top-dose activity change, negative = inhibition, hits mostly inhibitors. 0.4% of 340,000 active; active = falling curve of any shape with a large fitted effect; inconclusive = falling curve, mostly with a smaller effect; inactive = flat or rising curve; cell line not stated here;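 also: intracellular cAMP measured with PDE inhibitor Ro 20-1724 present during compound exposure; potency is read from the fitted curve at half-maximal effect; % is scaled to controls: 0 for no effect and ±100 for the full control effect; nearly all actives have a fitted effect of over 65% in size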
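Cells in G418 medium, seeded 16-24 h, 37C; buffer exchange to DPBS + 1 mM CaCl2, 0.5 mM MgCl2, 0.05% BSA; cpds in DMSO + […] (300 uM stock), 30 min 37C; HTRF cAMP detection.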
D2 potentiator: positive allosteric modulators of human D2 dopamine receptor | P14416 | DiscoveRx D2 beta-arrestin cells, luminescence, 90 min; 100% = 57 uM dopamine signal | potentiation, % (no concentration beside the values) | 0.23% of 360,000 active | AID 624464; active = potentiation of 50% or more; inconclusive = 30% to 50%; inactive = 30% or less;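 also: compound concentration not given in the record; tested on top of an EC20 dose of dopamine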
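D2 cells co-treated with compound plus 50 nM dopamine (EC20) for 90 min at 37 deg C to detect potentiation. Beta-arrestin recruitment was read as enzyme-fragment luminescence after 1 h at ambient temperature. Full response was set by 57 uM dopamine.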
Six1-Eya2 inh: inhibitors of human Six1/Eya2 interaction; AID 651725; AlphaScreen GST-Six1/His-Eya2 binding, biochemical; hits give low values; control for the full effect not named in the record; 0.56% of 360,000 active; activity change, % (no concentration beside the values); in the data active = activity change below about -65%; inconclusive = about -30% to -65%; inactive = above about -30%; also: % is scaled to controls: 0 for no effect and ±100 for the full control effect; compound concentration not given in the record
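AlphaScreen with GST-Six1 and His-Eya2 (5X mix: 250 nM and 500 nM), glutathione donor and nickel acceptor beads; buffer 50 mM Tris pH 8.0, 300 mM NaCl, 1 mM TCEP; 1 h at 37 C in the dark.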
CtBP-E1A blk: inhibitors of CtBP/E1A interaction; AlphaScreen GST-E1A/His-CtBP binding, 1536-well; hits give low values; control for the full effect not named in the record; activity change, % (concentration not given with the values); 0.49% of 340,000 active; in the data active means activity change below about -65%; inconclusive means about -30% to -65%; inactive means above about -30%; also: % is scaled to controls: 0 for no effect and ±100 for the full control effect
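Protein mix (5X: 125 nM each GST-E1A, His-CtBP) was incubated with pinned compound 2 h at 37 deg C in dark, in 50 mM Tris pH 8.0 buffer with 300 mM NaCl. Glutathione donor and nickel acceptor beads followed; AlphaScreen signal read after 1 h.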
gsp ag: agonists of gsp mutant (McCune-Albright syndrome). 0.13% of 340,000 active. Potency, µM (titrated, usually from 76.9 µM), for the others: at the highest dose activation (cAMP increase), usual class: activators. AID 624287. gsp mutant cells, cAMP HTRF, 30 min; control for the full effect not named in the record; active = well fitted activation curve with a large enough effect; inconclusive = small, poorly fitted or top-dose-only effect, or another doubt; inactive = no such curve, though single readings can be large or run the other way; cell line not stated here;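 also: phosphodiesterase inhibitor Ro 20-1724 added with compounds to block cAMP breakdown; potency is read from the fitted curve at half-maximal effect; nearly all actives have a fitted effect of over 60% in size; about a fifth of the inactives were tested at one dose only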
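Cells in DMEM/10% FBS with G418 were pretreated with compounds in DMSO plus […] (300 uM stock) for 30 min at 37C. cAMP was measured by HTRF (cAMP-d2 plus anti-cAMP antibody-K) after 30 min at room temperature.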
Active calls of the source: *; ? = inconclusive; . = not tested or not shown; [ ] = dose if it differs, or a comment. No enrichment for hits; 1.4% or so of the library scored in one or more.

The line under a structure holds: D2 ag | gsp antag | D2 potentiator | Six1-Eya2 inh | CtBP-E1A blk | gsp ag
1: CCN(CCn1cccn1)C(=O)c1cc(COc2ccc(F)c(F)c2)on1
    4.5 | -12% | -6 | 3 | 10 | 1%
2: N#CC(=C1CCCC1)c1nc(-c2ccccc2O)cs1
    -3.4 | -13% | -29 | -15 | -17 | -6%
3: COc1ccc2c(=O)c3ccccc3oc2c1
    1.0 | 0% | -2 | 0 | 8 | -58%[inhibitor]
4: COc1ccccc1P(=O)(Cc1ccccc1[N+](=O)[O-])c1ccccc1 (stereo not drawn)
    -5.9 | 6% | -6 | 1 | 3 | 9%
5: COc1ccc(/C=C2\SC(=S)N(CCCC(=O)Nc3cccc(C(=O)O)c3)C2=O)cc1OC
    -8.9 | -27% | -4 | -6 | -19 | ?
6: CCN1CCN(C(=O)CN2C(=O)c3ccccc3S2(=O)=O)CC1
    -4.3 | 10% | -2 | 3 | -15 | -1%
7: Oc1ccc2ccccc2c1-c1sc(Nc2ccccc2)n[n+]1-c1ccc(F)cc1
    -2.4 | -15% | -9 | -21 | -17 | 1%
8: CCCCNC(=S)Nc1cccc2cnccc12
    9.2 | 8% | 1 | 2 | -1 | -7%[15.4 µM]
9: CC/C(C)=N/Nc1nc2c(c(=O)[nH]c(=O)n2C)n1CCc1ccccc1
    9.7 | -3% | -4 | ? | ? | ?
10: COc1cccc(NC(=O)CN(C)C(=O)c2ccc(NC(=O)CC3SC(N4CCCC4)=NC3=O)cc2)c1 (stereo not drawn)
    3.0 | 6% | 2 | -6 | . | -37%[inhibitor]
11: O=C(COc1cccc(Br)c1)N/N=C1\CCSC1
    -1.2 | 8% | -8 | 2 | 15 | -11%[15.4 µM]
12: COc1cc(C(=O)NCCOc2cc(C)cc(C)c2)cc(OC)c1OC
    4.6 | 7% | 1 | 2 | 12 | 16%
13: CCOc1ccccc1NC(=O)CC(O)(C(F)(F)F)C(F)(F)F
    -3.2 | 14% | -9 | 0 | -1 | 13%
14: C=CCc1ccc(OCCCCNC(C)CC)c(OC)c1 (stereo not drawn)
    -5.7 | 12% | -11 | 5 | -3 | 40%
15: O=c1oc2ccccc2c2c1ccc1ccccc12
    -1.7 | -26% | . | -12 | -12 | .
16: COc1ccc(OC)c(S(=O)(=O)N/N=C\c2ccc3c(c2)OCO3)c1
    1.3 | -2% | -8 | 1 | -2 | ?
17: Cc1onc(C(=O)NN)c1C(=O)Nc1ncc(C(F)(F)F)cc1Cl
    -2.0 | -1% | -9 | -13 | -2 | 15%
18: CCOc1ccc(N(CC(=O)NCCSCc2ccccc2)S(=O)(=O)c2ccccc2)cc1
    -1.6 | -14% | 0 | -12 | 5 | ?
19: C=CCOc1c(CNc2ncn[nH]2)cccc1OCC
    -2.2 | 8% | -11 | 1 | -6 | 25%
20: CCOC1=C2[C@@H](CN(S(=O)(=O)c3ccc(C)cc3)[C@H]2c2cccc3ccccc23)[C@H]2C(=O)N(C3CCCCC3)C(=O)[C@H]2C1
    -5.3 | . | 3 | -7 | 0 | .
21: CNc1nc(N2CCc3ccccc32)ncc1F
    -2.7 | -1% | -24 | -2 | 7 | -95%[inhibitor]
22: COc1ccc(/C=C2/SC(=O)N(CCC(=O)Nc3ccccc3C(=O)O)C2=S)cc1
    -5.8 | -10% | -19 | -5 | 12 | -10%
23: Cc1cc(C)n(C/C=C/Cn2nc(C)cc2C)n1
    3.4 | 7% | 1 | 1 | 4 | ?
24: Cc1ccc(S(=O)(=O)N(C)C)cc1NC(=O)COC(=O)C1(c2ccccc2)CC1
    -0.3 | -1% | -20 | 10 | 0 | ?
25: COc1cc2c(C#N)c(N3CCCCC3)nc(N)c2c(N)n1
    -2.4 | 10% | -6 | -15 | -8 | ?
26: O=C(Nc1ccc(Cl)c(Cl)c1)Nc1cc(S(=O)(=O)N2CCOCC2)ccc1N1CCCC1
    -0.8 | -6% | -28 | -12 | -3 | 21%
27: C/C(=C\C(=O)c1ccc(Cl)cc1)Nc1ccc(Br)cc1
    -1.0 | 13% | 1 | 3 | 5 | -15%
28: O=C(c1cnn2c(C(F)F)cc(-c3ccccc3)nc12)N1CCCCC1c1cccnc1 (stereo not drawn)
    3.2 | -5% | -1 | 1 | -8 | -6%[15.4 µM]
29: COc1ccc(-c2ccc(C#N)c(SCC(=O)NCc3ccco3)n2)cc1OC
    -1.5 | 11% | -14 | -5 | -1 | -3%[15.4 µM]
30: CC12CN3CCN(CC(C3)/C1=N\NC(=O)c1ccccc1N)C2
    -4.2 | 7% | -1 | 0 | -18 | -18%[15.4 µM]

Continued (2 carried over from the part before).
The line under a structure holds: D2 ag | gsp antag | D2 potentiator | Six1-Eya2 inh | CtBP-E1A blk | gsp ag
29: COc1ccc(-c2ccc(C#N)c(SCC(=O)NCc3ccco3)n2)cc1OC
    -1.5 | 11% | -14 | -5 | -1 | -3%[15.4 µM]
30: CC12CN3CCN(CC(C3)/C1=N\NC(=O)c1ccccc1N)C2
    -4.2 | 7% | -1 | 0 | -18 | -18%[15.4 µM]
31: COc1ccc(CCN(C)Cc2c(O)ccc3ccccc23)cc1OC
    -7.6 | -5% | -11 | 2 | -1 | -26%
32: O=C1N[C@H](Cc2ccccc2)COC(=O)[C@H](Cc2ccc(F)cc2)C/C=C\C[C@H]1CC(=O)N(CCO)Cc1ccccc1
    -4.4 | -12% | -16 | -4 | -3 | .
33: O=C(Cn1c(-c2ccccc2)noc1=O)N1CCC(Cc2ccccc2)CC1
    4.4 | -8% | -1 | 4 | -26 | 3%
34: O=C(O)/C=C/c1cn(Cc2ccccc2)nc1-c1ccc(Cl)cc1
    -3.1 | ? | -22 | -13 | 2 | -2%[15.4 µM]
35: CC(=O)c1nc(N2C(=O)CC(Cc3ccccc3)C2=O)sc1C (stereo not drawn)
    -3.3 | 10% | -16 | -1 | -20 | 16µM*
36: COc1ccccc1-c1nc(SCC(=O)O)n[nH]1
    -2.7 | 2% | -16 | 1 | 1 | -5%
37: O=C(NC(c1ccccc1)c1ccccc1)C1CCCO1 (stereo not drawn)
    -0.9 | -12% | 0 | 6 | 12 | 31%[15.4 µM]
38: Cc1cccc(C(=O)OCC(=O)Nc2nccs2)c1
    1.1 | -6% | 3 | 1 | 5 | 15%
39: COc1ccc(N2CCN(C3CC(=O)N(Cc4ccc(N5CCCC5=O)cc4)C3=O)CC2)cc1 (stereo not drawn)
    -1.0 | -5% | -7 | 2 | 9 | -2%
40: O=c1cc[nH]c2ccc(OC(F)(F)F)cc12
    -1.7 | 13% | -7 | 29 | 26 | -6%[15.4 µM]
41: Cc1ccc(CC(=O)Nc2ncc([N+](=O)[O-])s2)cc1
    -4.5 | -9% | 67* | -5 | . | 8%
42: CC(=O)Nc1ccc(O)cc1[N+](=O)[O-]
    -6.4 | 4% | 1 | 5 | 14 | -11%[15.4 µM]
43: CCC1S/C(=C(\C#N)C(=O)NCc2ccco2)N(c2ccc(Br)cc2)C1=O (stereo not drawn)
    -1.2 | -2%[15.4 µM] | -22 | -10 | -1 | -41%[inhibitor]
44: COc1ccc(NC(=O)CN(C)C(=O)c2cc(-c3ccc(C)o3)nc3ccccc23)cc1
    -5.6 | -21% | -13 | -3 | -3 | ?
45: COc1cccc(OCC(O)CN2CC(C)CC(C)C2)c1 (stereo not drawn)
    -2.7 | 9% | -31 | -13 | -8 | -3%
46: COC(=O)C(C)C1Sc2ccccc2NC1=O (stereo not drawn)
    -4.1 | 3% | -25 | -1 | -1 | -5%
47: Cn1c(N/N=C2\CCCc3ccccc32)nc2c1c(=O)n(Cc1ccc(F)cc1)c(=O)n2C
    -0.2 | 11% | -14 | 9 | -15 | -51%[inhibitor]
48: COc1ccc(-c2cc(=O)c3cc(F)ccc3[nH]2)cc1
    -1.4 | -5% | -7 | 10 | . | -17%
49: CCOC(=O)CC1C(=O)NCCN1C(=O)c1cc2c(=O)n3cccc(C)c3nc2s1 (stereo not drawn)
    4.5 | 10% | 1 | -5 | 2 | ?
50: Cc1ccc(S(=O)(=O)N2CCCC2C(=O)Nc2nccs2)cc1 (stereo not drawn)
    -1.9 | 4%[15.4 µM] | -11 | 6 | 1 | 20%
51: CC(C)NS(=O)(=O)c1ccc(OCC(=O)NCc2ccco2)cc1
    1.4 | . | -5 | 10 | 21 | -34%[15.4 µM]
52: O=C(O)CSCCc1ccccn1
    -1.6 | 8% | -4 | 1 | 25 | -4%
53: O=C(CSc1ncccn1)NC(=O)c1ccccc1
    -5.8 | 13% | 8 | 0 | 3 | -2%[15.4 µM]
54: COc1ccc(OCc2cc(C(=O)N[C@H]3CCCCNC3=O)no2)c(Cl)c1
    -0.7 | 7% | 21 | 5 | 5 | -80%[inhibitor]
55: CC12C(=O)N(n3cnnc3)C(=O)C1C1C=CC2C1 (stereo not drawn)
    0.1 | 20% | -2 | 1 | 9 | -22%
56: COC(=O)C1CCN(Cc2cc(=O)oc3cc(C)c(Cl)cc23)CC1
    ? | -13% | -3 | 0 | 4 | -3%
57: O=C(NCc1nnnn1-c1ccc(F)cc1)c1cc2ccccc2o1
    -0.4 | . | -18 | 0 | -2 | -67%[inhibitor]
58: O=C(CSc1ccsc1[N+](=O)[O-])NC1CCCC1
    -3.1 | 1% | -3 | 1 | -16 | -41%[inhibitor]
59: Cc1cc(/C=C2/NC(=O)N(c3ccccc3)C2=O)c(C)n1-c1cccnc1
    -3.5 | ? | -7 | -14 | 0 | -5%[15.4 µM]
60: Cc1nc(C(=O)NCC(=O)c2ccc(Cl)cc2)c(C(F)(F)F)o1
    -4.3 | 5% | -4 | 1 | 12 | 7%
61: O=C(NCCc1cccs1)c1ccc(CS(=O)Cc2cccc(Cl)c2)o1 (stereo not drawn)
    -1.1 | . | -8 | 2 | 0 | 2%
62: COc1ccccc1CNC(=O)COC(=O)c1ccc(-n2cnnn2)cc1
    1.2 | -19% | -12 | 32 | 0 | ?
63: CC(O)c1cccc(-c2ccc(CN3C[C@]4(CO)O[C@@H](CO)C[C@@H]4S3(=O)=O)cc2)c1 (stereo partly drawn)
    -0.1 | -1% | -2 | -3 | 1 | .
64: COc1cccc(OCC(=O)Nc2c3c(nn2-c2ccc(F)cc2)CS(=O)(=O)C3)c1
    1.3 | -12% | -30 | 4 | -1 | -22%
65: CC1CN(C(=O)c2cc3cc(Cl)cc(Cl)c3oc2=O)CC(C)O1 (stereo not drawn)
    -3.0 | 26% | 0 | 17 | 0 | 21%
66: COc1cccc(C2=CC(c3ccccc3)n3nnnc3N2)c1 (stereo not drawn)
    -1.8 | 16% | -5 | 1 | -2 | -26%
67: O=C(CS(=O)CC(=O)N(CC(=O)NC1CCCC1)c1ccccc1F)Nc1ccc(F)cc1 (stereo not drawn)
    -3.3 | -13% | -13 | 1 | 27 | 20%[15.4 µM]

Assay outcomes (PubChem)
